Source: PubChem (several laboratories)
HIV Env fusion = HIV envelope-mediated fusion inhibition; 360,000 tested, 1.1% active; inhibition, % at 12.3 µM; HeLa-JRFL Env/CEM21 cell fusion, luciferase; AID 651610;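 active = mean replicate inhibition score of at least 50 and every replicate individually at or above 50; inconclusive = only one of the two criteria met; inactive = mean below 50 and not all replicates reaching 50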;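 also: 0% = plate neutral controls and 100% = maraviroc near 300 nM; one replicate is shown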
PABP FP inh = PABP-poly(A) binding inhibition; P11940; PABP-poly(A) RNA binding, fluorescence polarization; inhibition, % at 35 µM; 290,000 tested, 1% active; AID 2014;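 active = 50% or more with normal probe brightness, or confirmed in later tests; inconclusive = above 50% with abnormal brightness, or retests that disagree; inactive = below 50% or failed in later tests; about a fifth of its hits are not listed in these tables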;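 also: calls also rest on retests at 20 µM and on dose response follow-up; controls were probe without protein and protein plus probe with vehicle; some compounds called inactive have numbers as strong as hits; many hits fall short of the cut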
Target sequence (P11940 whole entry, looked up): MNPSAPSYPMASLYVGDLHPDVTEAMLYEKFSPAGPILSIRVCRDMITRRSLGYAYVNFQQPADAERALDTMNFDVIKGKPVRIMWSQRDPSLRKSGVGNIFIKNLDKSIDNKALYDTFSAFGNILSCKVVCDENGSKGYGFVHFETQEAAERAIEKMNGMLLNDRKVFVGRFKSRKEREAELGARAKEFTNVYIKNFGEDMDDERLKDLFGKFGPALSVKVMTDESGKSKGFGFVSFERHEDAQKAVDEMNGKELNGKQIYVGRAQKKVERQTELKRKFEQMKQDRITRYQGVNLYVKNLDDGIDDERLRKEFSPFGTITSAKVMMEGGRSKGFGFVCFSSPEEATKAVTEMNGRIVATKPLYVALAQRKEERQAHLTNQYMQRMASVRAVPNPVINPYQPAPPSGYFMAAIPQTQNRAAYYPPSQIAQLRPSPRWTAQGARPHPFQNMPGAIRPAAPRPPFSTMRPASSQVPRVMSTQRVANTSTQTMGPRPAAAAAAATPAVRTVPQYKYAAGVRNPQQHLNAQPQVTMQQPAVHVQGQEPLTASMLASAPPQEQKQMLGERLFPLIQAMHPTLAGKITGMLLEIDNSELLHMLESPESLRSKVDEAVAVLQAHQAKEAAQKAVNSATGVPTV
MT1-MMP act inh = inhibitors of human MT1-MMP activation. 360,000 tested, 0.061% active. P50281. HT1080 RFP-PRO-GFP cells, GFP/RFP ratio fluorescence, overnight; percent of plate control window, DMSO zero. GFP/RFP ratio change, % at 20 µM. AID 651647;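 active = GFP/RFP ratio change of at least 30% with cell ATP level not reduced by more than half and red fluorescence within 50% of control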; also: strong numbers were not always called active
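Assay system: HT1080 RFP-PRO-GFP cells | Dosing: 20 µM single dose, 1% DMSO | Incubation: Cells overnight before dosing, compound overnight, 37 °C, 5% CO2 | Evaluation: GFP/RFP fluorescence ratio | Control set: DMSO-only wells and HT1080 RFP-L50D-GFP cell wells as references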
UUG fidelity = modulators of start codon recognition fidelity in yeast | activity score, % at 18.7 µM | 350,000 tested, 0.13% active | S. cerevisiae UUG-firefly luciferase reporter, luminescence/redox ratio;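 active = replicate mean at a twofold rise or more, about +100% in these data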;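 also: firefly luciferase made from a UUG start codon reports start codon fidelity; reporter light over untreated wells divided by growth signal over untreated wells; some hits fall short of that in this replicate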
CSC inhib = cancer stem cell inhibition; cancer stem cell-like cells viability, luminescence; inhibition, % at 7.5 µM; 300,000 tested, 1.1% active; AID 2717;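 active = mean at 75% or more and at least half the replicates too; inconclusive = mean and replicates disagree; tested in HMLE shEcad cells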;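 also: 0% = median of negative and 100% = median of positive control wells; the first replicate is given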
eIF4H FP inh = inhibitors of RNA binding by human eIF4H; eIF4H fluorescence polarization binding assay; inhibition, % at 35 µM; 290,000 tested, 0.94% active; AID 2012;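 active = 50% or more with normal probe brightness, or confirmed in later tests; inconclusive = above 50% with abnormal brightness, or retests that disagree; inactive = below 50% or failed in later tests; about a fifth of its hits are not listed in these tables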;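 also: calls also rest on retests at 20 µM and on dose response follow-up; 0% = protein and probe with vehicle and 100% = probe without protein; strong numbers were not always called active; many hits fall short of the cut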
Rce1 inh = inhibitors of yeast Ras-converting enzyme | calls only | Q03530 | yeast membranes, quenched prenylated peptide cleavage fluorescence | 290,000 tested, 0.27% active | AID 2563;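 active = fall in fluorescence gain of 50% or more versus controls, with final raw signal at or below 3038400; inconclusive = same 50% fall but final raw signal above 3038400; inactive = fall in fluorescence gain under 50%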;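 also: plate controls were neutral control wells for no effect and wells lacking membranes for full effect; tested at 10 µM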
Target sequence (Q03530 whole entry, looked up): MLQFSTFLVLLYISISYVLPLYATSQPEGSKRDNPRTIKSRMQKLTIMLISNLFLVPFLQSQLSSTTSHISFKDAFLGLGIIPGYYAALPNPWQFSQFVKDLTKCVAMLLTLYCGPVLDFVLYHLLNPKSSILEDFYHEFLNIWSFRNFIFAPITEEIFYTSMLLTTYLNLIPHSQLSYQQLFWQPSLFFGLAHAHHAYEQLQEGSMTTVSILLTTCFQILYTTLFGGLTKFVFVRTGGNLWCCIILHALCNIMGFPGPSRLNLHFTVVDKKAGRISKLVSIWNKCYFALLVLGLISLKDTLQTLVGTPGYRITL
eIF4H FP inh retest = second read-out of eIF4H FP inh, no call of its own (marks repeat the call); inhibition, %; compound at 20 µM; confirmation average;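 mean of two retest wells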
PABP FP inh retest = second read-out of PABP FP inh, no call of its own (marks repeat the call); inhibition, %; compound at 20 µM; confirmation repeats;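 mean of two retest wells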
MT1-MMP act inh RFP = also measured in MT1-MMP act inh; calls as there; RFP signal change, %; measured here: RFP expression control read;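 0 = vehicle wells; hits needed this value within 50% of zero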
The depositor's hits bear a star; i = inactive; ? = inconclusive; . = not tested or not shown.

SMILES | HIV Env fusion | PABP FP inh | MT1-MMP act inh | MT1-MMP act inh RFP | UUG fidelity | CSC inhib | eIF4H FP inh | Rce1 inh | others
COc1ccccc1C(=O)NNC(=O)c1ccc(NC(=O)C(C)C)cc1 | 4 | 0 | 4 | 2 | . | . | -7 | i
COCCn1c(C)cc(C(=O)COC(=O)c2c(C)nn(Cc3ccccc3)c2C)c1C | 27 | 5 | -7 | -6 | -7 | 20 | -2 | i
O=C(Nc1nc(-c2cccnc2)cs1)c1cccc([N+](=O)[O-])c1 | -37 | -10 | 2 | -1 | -14 | 3 | -1 | i
O=C1CC(c2ccccc2)n2nc(NC(=O)c3cccs3)nc2N1 (stereo unspecified) | 3 | 7 | 2 | 8 | -19 | 0 | 6 | i
O=C(c1cc(-c2ccc(Cl)s2)nc2ccccc12)N1CCCC1 | -1 | 11 | -8 | -3 | -3 | 1 | -14 | i
CCOc1cc(/C=N/NC(=O)C(=O)NCc2cccnc2)ccc1O | -23 | 4 | -5 | -1 | -11 | . | -5 | i
CCc1nc(SCC(=O)Nc2nnc(C(C)C)s2)n[nH]1 | 3 | . | -2 | 1 | -10 | . | . | .
COc1ccc(N2C(=O)C(Cl)=C(Nc3ccccc3O)C2=O)cc1 | . | 6 | 0 | 1 | 13 | -8 | -2 | .
O=C(c1ccc(Cl)s1)N1CCCC1 | -53 | 3 | -6 | 3 | -5 | -5 | 2 | i
O=c1c(Cl)c(NS(=O)(=O)c2ccccc2)cnn1-c1ccccc1 | 7 | -10 | -3 | 6 | -3 | -9 | -17 | i
O=C1C2C(c3ccccc3)=NN(c3ccccc3)C2C(=O)N1c1ccccc1 (stereo unspecified) | -12 | -6 | 5 | 5 | -22 | 10 | -9 | i
CCOC(=O)C1=C(C)c2ccccc2OC1(CC)C(=O)OCC (stereo unspecified) | 4 | . | 3 | 1 | -7 | . | . | .
COc1ccc(Nc2nnc(SCC(=O)Nc3cc(C)on3)s2)cc1 | . | 8 | -1 | 3 | -16 | . | -5 | .
Nc1nc(CN2CCN(Cc3ccccc3)CC2)nc(Nc2ccc3c(c2)OCCO3)n1 | -128 | 3 | 2 | 7 | . | -15 | 3 | i
O=C(Nc1ccc(Cl)c(Cl)c1)C1CC(=O)N(c2ccc(Br)cc2)C1 (stereo unspecified) | . | -2 | 10 | 5 | -9 | 55 | -7 | i
C=CCN(C(=O)CC(NC(C)=O)c1ccccc1)c1nc(-c2ccc(S(C)(=O)=O)cc2)cs1 (stereo unspecified) | -1 | -4 | -7 | -9 | 0 | -4 | 5 | i
CCOc1ccc(NC(=O)C2C3CCC4C(CCC32)C4(Cl)Cl)cc1 (stereo unspecified) | 2 | -5 | 1 | -3 | . | -2 | 6 | i
CC(C)c1ccc(OCC(O)Cn2cnc3ccccc32)cc1 (stereo unspecified) | . | 2 | 5 | -19 | -23 | 1 | -8 | i
C/C(=N\NC(=O)c1ccccc1O)c1ccc(NC(=O)c2ccccc2)cc1 | -33 | 3 | 3 | 3 | -10 | -13 | 0 | i
CCn1c(C)nc2cc(C(N)=O)ccc21 | -4 | 67* | 3 | 2 | -6 | 2 | 99* | i
COCCNC(=O)c1ccc(-n2c(SCc3cccnc3)nc3ccccc3c2=O)cc1 | -9 | 0 | 0 | -2 | -8 | -1 | 18 | i
Cc1cc(C=NCCO)c(C)n1-c1cc(Cl)ccc1Cl | -2 | 1 | -6 | 1 | . | 18 | 0 | i
COC(=O)C1C(=O)/C(=C(/C)N2CCCC2)C(=O)CC1(C)C (stereo unspecified) | -57 | 4 | -9 | 0 | -11 | -6 | 5 | i
O=C(Cn1c(SCC(=O)N2CCc3ccccc32)nc2ccccc21)NC1CCCC1 | . | -10 | -3 | 0 | 0 | -11 | 0 | i
COc1ccc(Nc2nc3ccccc3n3nnnc23)cc1 | -7 | 14 | -2 | 1 | -13 | -1 | 9 | i
O=C(NC1CCCCCC1)c1ccccc1-c1ccccc1 | . | -6 | 0 | -5 | . | 8 | 2 | i
O=C(CSc1nnc(-c2ccco2)n1Cc1ccccc1)NC(=O)NCc1ccccc1 | -17 | 0 | -3 | -3 | -3 | 35 | -2 | i
CCOc1ccc(C)cc1S(=O)(=O)n1nc(C)cc1C | -3 | 2 | -10 | -6 | . | -9 | -3 | i
CC(C)NC(=O)c1onc(CSc2cccc(Cl)c2)c1C(=O)O | -10 | 11 | 1 | 5 | -8 | 6 | -3 | i
CN1CCc2c(sc3c2C(=O)NC(c2ccc(-c4ccc(Cl)cc4)o2)N3)C1 (stereo unspecified) | -17 | 42 | -81 | 1 | 3 | -8 | ? | i
Cc1c(-n2c(SCC(=O)C(C)(C)C)nc3ccccc3c2=O)c(=O)n(-c2ccccc2)n1C | 3 | 5 | 2 | 7 | -9 | -13 | -4 | i
CCCc1cc(=O)[nH]c(SCC(=O)N2CCC(C(=O)OCC)CC2)n1 | . | -4 | 5 | 1 | -16 | -16 | 83 | i | eIF4H FP inh retest=22;PABP FP inh retest=30
O=C(c1ccccc1)N1N=C(C(F)(F)F)CC1(O)c1ccccc1 (stereo unspecified) | -14 | -6 | -5 | 0 | -6 | -1 | -2 | i
CCOc1ccccc1NC(C)C(=O)NC(=O)NC1CCCCC1 (stereo unspecified) | -3 | . | 2 | 2 | 2 | . | . | .
O=C(CN1CCN(S(=O)(=O)c2ccc(F)cc2)CC1)NC1CC1 | -2 | 1 | 2 | 4 | 7 | 6 | 5 | i
Cc1cc(C)c2nc(NC(=O)[C@@H](NC(=O)c3cccc(S(=O)(=O)N4CCOCC4)c3)C(C)C)sc2c1 | -4 | 2 | -42 | -41 | -11 | 1 | -9 | i
COc1cc(C2c3[nH]c4ccccc4c3C[C@H]3C(=O)N(C4CC4)CC(=O)N23)ccc1OC(C)C (stereo partly specified) | -85 | -6 | 3 | 0 | -4 | 2 | 3 | i
CCN1CCN(CC(=O)N2CCCC(C(=O)c3ccc(Oc4ccccc4)cc3)C2)CC1 (stereo unspecified) | 3 | 5 | -2 | -6 | 6 | -11 | 5 | .
CCCC1=NN2C(=N)/C(=C\c3cc(C)n(-c4cccc(C)c4)c3C)C(=O)N=C2S1 | 13 | -14 | -21 | -12 | . | 8 | 79 | i | eIF4H FP inh retest=-10;PABP FP inh retest=3
N/C(Cc1cccs1)=N\OC(=O)COc1ccc(Br)cc1Cl | . | 0 | 3 | 4 | -24 | -2 | 24 | i
CC(C)C1CC(CCN)(Cc2ccccc2)CCO1 (stereo unspecified) | 21 | -2 | -4 | 1 | . | -6 | 0 | i
O=c1oc2ccccc2n1Cc1ccccc1Cl | -6 | -8 | 3 | 4 | -17 | -2 | -1 | i
Cc1ccc(Nc2nc(NCCO)nc3c2cnn3C)cc1Cl | -4 | 9 | 3 | -7 | -17 | 2 | -2 | i
COC(=O)c1ccsc1NC(=O)CS(=O)(=O)c1ccccc1 | -11 | . | -3 | -4 | -17 | -5 | . | i
Cc1cc(NC(=O)C2CCCC2)n(-c2nc3ccccc3[nH]2)n1 | 10 | -3 | -2 | -7 | -24 | -13 | 1 | i
Cc1cc(C)n(C(=O)c2cccc(S(=O)(=O)N3CCCC3)c2)n1 | -36 | -2 | 4 | 5 | -11 | 10 | -6 | i
O=C(CCS(=O)CCC(=O)NCc1ccccc1)NCc1ccccc1 | 3 | -7 | . | . | 4 | -6 | 0 | i
CC1(C)CN=C(N(C(=O)Nc2ccccc2)c2ccccc2F)S1 | 2 | -9 | 2 | 1 | -11 | -13 | -1 | i
O=C(CSc1nnnn1C1CCCCC1)N1CCOCC1 | -5 | 0 | 2 | 5 | . | -7 | -14 | i
CCc1ccc(NC(=O)C2CCN(C(=O)[C@@H]3Cc4ccccc4CN3)CC2)cc1 | -9 | 2 | -1 | 2 | -17 | 13 | -11 | i
COc1cc(C(=O)OC(C)C(=O)N2CCCC2)cc2c1OCCO2 (stereo unspecified) | 12 | . | 2 | 3 | -7 | . | . | .
CC(=O)N(C)c1ccc(N=Nc2c(C)[nH]n(-c3ccccc3)c2=O)cc1 | 10 | 12 | 14 | -15 | 3 | 10 | 3 | i
COc1ccc(S(=O)(=O)NCC(c2ccco2)N2CCc3ccccc32)cc1 (stereo unspecified) | . | . | -1 | -9 | . | 7 | . | i
O=Cc1cccc(OCc2cccc3ccccc23)c1 | -16 | -12 | -1 | 0 | -18 | 7 | -4 | i
CCN(CC)CCNC(C(=O)Nc1ccc([N+](=O)[O-])cc1Br)c1ccccc1 (stereo unspecified) | -19 | 2 | 4 | 5 | -7 | 1 | 0 | i
COc1ccc([C@@H](NC(=O)OC(C)(C)C)C(=O)OC(C)(C)C)cc1 | . | . | -3 | 0 | -10 | -6 | . | .
Cc1cccc2c(=O)c(C(=O)NCc3ccc(F)cc3)c[nH]c12 | -2 | -12 | 6 | -3 | 3 | 57 | 0 | i
C[C@H](O)[C@@H]1C(=O)N2CCc3ccc(-c4ccccc4)cc3[C@@H]2C[C@@H]1N(C)C(=O)c1cccnc1 | -38 | . | -1 | -1 | -8 | . | . | .
O=C(N/N=C/c1ccccc1F)C(=O)N1CCCCCC1 | 3 | 4 | 0 | 3 | -25 | . | 0 | i
CCN(CC(=O)Nc1ccc(NC(C)=O)cc1)C(=O)c1ccc(COc2ccccc2)o1 | . | . | 3 | -7 | -15 | -15 | . | .
The results go on:
SMILES | HIV Env fusion | PABP FP inh | MT1-MMP act inh | MT1-MMP act inh RFP | UUG fidelity | CSC inhib | eIF4H FP inh | Rce1 inh | others
Cc1cccc(N(CC(=O)N2CCCCCC2)S(C)(=O)=O)c1 | 17 | 0 | 6 | 6 | 11 | -6 | 4 | i
CS(=O)(=O)c1ccc(-c2cn3cc(C(=O)O)ccc3n2)cc1 | 15 | -15 | 1 | 2 | -62 | 10 | 3 | i
CC1CCN(C(=S)c2ccc([N+](=O)[O-])cc2)CC1 | -19 | 21 | 3 | 7 | -29 | 21 | 3 | i
CC(=O)N1CC=C2C(C#N)=C(N)C(C#N)(C#N)[C@H](c3ccoc3)[C@H]2C1 | -19 | 3 | -67 | 8 | -10 | -15 | ? | i
COc1ccc(OCC(O)CN2CCN(Cc3ccc4c(c3)OCO4)CC2)cc1 (stereo unspecified) | -8 | -4 | -4 | -1 | . | 23 | -13 | i
CC(C)(C)OC(=O)N1CCN(C(=O)c2nc[nH]c2C(=O)N2CCN(C(=O)OC(C)(C)C)CC2)CC1 | 6 | . | 7 | 3 | -5 | -12 | . | .
CN(C(=O)COc1ccccc1C(=O)NCCc1ccccc1)c1ccccc1 | . | -6 | 3 | -3 | 7 | -8 | 5 | i
COc1ccc(/C(N)=N/OC(=O)CCCc2ccccc2)cc1 | 4 | 0 | 1 | -4 | . | 8 | 2 | i
COc1ccc(CNS(=O)(=O)c2cn(C)c(=O)n(C)c2=O)cc1 | 18 | 2 | 2 | 3 | -13 | 12 | -2 | i
Cc1ccc(NC(=O)c2ccc(=O)[nH]n2)cc1S(=O)(=O)Nc1ccc(SC(F)F)cc1 | . | . | -5 | -25 | -2 | 6 | . | .
O=C1NCCOC(=O)[C@H](Cc2ccc(F)cc2)C/C=C\C[C@@H]1CC(=O)N(CCO)Cc1ccccc1 | -15 | . | -3 | -17 | 10 | . | . | .
